YjeE inh: inhibitors of E. coli YjeE (TsaE); P0AF67; purified YjeE, fluorescence polarisation of a bound ADP probe; Potency, µM; 71,000 tested, 0.05% active; AID 605; active = well fitted falling curve; inconclusive = weaker or top-dose-only fall, or a rising curve; inactive = flat or poorly fitted curve;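 note: top concentration of the series not given in the record; excess ADP was the control for the full effect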
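Purified YjeE (10 uM) with BODIPY Texas Red-labeled ADP probe (2 uM); compounds pin-transferred, 15 min at room temperature. Binding inhibition read as decreased fluorescence polarization; ADP titration as control.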
Bst PK mod: pyruvate kinase (B. stearothermophilus) modulation; AID 361; partly purified Bacillus stearothermophilus pyruvate kinase, luminescence ATP production; ribose 5-phosphate activator present at AC10; Potency, µM; 51,000 tested, 1.2% active; in the data active means potency below about 11 µM; inconclusive means mostly about 12 µM to 25 µM; inactive means weaker than that;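 the screen sought inhibitors and activators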;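 note: potency is the fitted concentration of half-maximal effect; scaled between full activation by ribose 5 phosphate and full inhibition by luteolin; about four in five hits inhibit and the cells do not say which; series up to 57 µM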
* = called active by the depositor; i = inactive; x = no result given. These rows are one share of the data, so the mix of outcomes need not match the whole.

nr	structure	Bst PK mod	YjeE inh
1	CC1CCN(C(=O)CSc2ccc3nnc(-c4cccc(F)c4)n3n2)CC1	x	i
2	O=C1C[C@H]2C(=O)[C@@H]1[C@@H](C(=O)O)[C@H]2C(=O)O	x	i
3	O=C(NCCCN1CCOCC1)c1cc2c(s1)CCCC2	>57	i
4	COc1ccc(-c2c(C#N)c(SCc3c(C)noc3C)nc3c2C(=O)CC(C)(C)C3)cc1	>57	i
5	CCc1cccc(C)c1NC(=O)CN1C(=O)c2ccccc2S1(=O)=O	x	i
6	CCCS(=O)(=O)c1nc(S(=O)(=O)c2ccc(C)cc2)c(NCCN2CCOCC2)s1	x	i
7	CN1/C(=C/C(=O)c2nc(S(C)(=O)=O)ncc2Cl)C(C)(C)c2ccccc21	>57	i
8	Cc1ccc(C(C(=O)NC2CCCC2)N(C(=O)c2csnn2)C2CCCC2)o1 (stereo not drawn)	>57	i
9	O=C(NCCc1csc(-c2ccccc2)n1)c1cccs1	x	i
10	COc1ccc2cnn(-c3ccccc3C)c(=O)c2c1OC	>25.6	x
11	CCn1cc(C2=NC(C(C)C)CO2)c2ccccc21 (stereo not drawn)	x	i
12	CSc1nsc(SC)c1C(=O)N1CCN(S(=O)(=O)c2ccc(C)cc2)C1C (stereo not drawn)	>57	i
13	CCOCCc1nnc(NC(=O)c2cccs2)s1	>57	i
14	CCCC(C(=O)NCc1ccc(OC)cc1)N(Cc1ccco1)C(=O)c1snc(C(N)=O)c1N (stereo not drawn)	>57	i
15	CCn1cc(C(=O)O)c(=O)c2cnc(N3CCN(C(=O)Nc4cccc5ccccc45)CC3)nc21	>57	i

Continued:
nr	structure	Bst PK mod	YjeE inh
16	COCCN(CCOC)S(=O)(=O)c1ccc(C(=O)NCCCN2CCOCC2)cc1	>57	i
17	Cn1c(=O)c2c(nc(CN3CCC(C(N)=O)CC3)n2Cc2c(Cl)cccc2Cl)n(C)c1=O	>57	i
18	Cn1cccc1C(=O)N1CCC[C@@]2(CCN(Cc3ccccc3)C2)C1	x	i
19	Cc1cc(C)cc(Nc2ccc(C(=O)O)cc2N)c1	>57	i
20	Fc1ccccc1CSc1nnnn1-c1ccc2c(c1)OCO2	>57	i
21	COc1ccc(-c2nnc(SCC(=O)N3CCOCC3)o2)cc1OC	x	i
22	Cc1cccc(NC(=O)c2cc(NC(=O)c3ccco3)ccc2N2CCCCC2)c1	>57	i
23	C[C@@H]1C(=O)O[C@H]2[C@@H](O)[C@@]34[C@H]5C[C@H](C(C)(C)C)[C@@]36[C@H](OC(=O)[C@@H]6O)O[C@@]4(C(=O)O5)[C@@]12O	x	i
24	Cc1c(Cl)cccc1NC(=O)NC1CCCCC1	>57	i
25	CCOC(=O)c1cc2sccc2n1CC(=O)Nc1ccc2c(c1)OCCO2	>57	i
26	COCCNC(=O)[C@H](C)/C=C/C(NC(=O)OCc1ccccc1)c1ccc(C(=O)OC)cc1 (stereo partly drawn)	x	i
27	CC1CCCCN1Cc1nc2c(c(=O)n(C)c(=O)n2C)n1CCc1ccccc1 (stereo not drawn)	>57	i
28	Nc1ccc(S(=O)(=O)Nc2ccc(Cl)nn2)cc1	x	i
29	Cc1ccc(-c2noc(CCC(=O)NC3CCCc4ccccc43)n2)cc1 (stereo not drawn)	>57	i
30	COc1ccccc1CNC(=O)CCN1C(=O)COc2ccc(C)cc21	>57	i

In another format: results already given.
Values in the order: Bst PK mod	YjeE inh
#23 C[C@@H]1C(=O)O[C@H]2[C@@H](O)[C@@]34[C@H]5C[C@H](C(C)(C)C)[C@@]36[C@H](OC(=O)[C@@H]6O)O[C@@]4(C(=O)O5)[C@@]12O
→ x	i
#24 Cc1c(Cl)cccc1NC(=O)NC1CCCCC1
→ >57	i
#25 CCOC(=O)c1cc2sccc2n1CC(=O)Nc1ccc2c(c1)OCCO2
→ >57	i
#26 COCCNC(=O)[C@H](C)/C=C/C(NC(=O)OCc1ccccc1)c1ccc(C(=O)OC)cc1 (stereo partly drawn)
→ x	i
#27 CC1CCCCN1Cc1nc2c(c(=O)n(C)c(=O)n2C)n1CCc1ccccc1 (stereo not drawn)
→ >57	i

Continuation.
nr	structure	Bst PK mod	YjeE inh
31	O=S(=O)(NCc1ccncc1)c1ccc(Br)s1	>57	i
32	COC(=O)[C@@]1(Cc2ccccc2)[C@H]2c3cc(C(=O)N(C)C)n(Cc4ccc(OC)c(OC)c4)c3C[C@H]2CN1C(=O)c1ccccc1	x	i
33	O=c1[nH]c2c(n(C3CCCCC3)c1=O)CCC2	>57	i
34	CSC1=NCCN1C(=O)c1ccc(S(=O)(=O)N2CCCCC2)cc1	x	i
35	COC(=O)c1[nH]c2cc(OC)ccc2c1NC(=O)CCN1CCCCC1	>57	i
36	CCCc1n[nH]c2c1C(=O)C(C(=O)OC)C(C)(C)C2 (stereo not drawn)	x	i
37	CSc1nnc2n(C3CCCCC3)c(=O)c3c4c(sc3n12)CCCC4	>25.6	x
38	COc1cccc(-c2cc(C(=O)Nc3cc(C)on3)no2)c1	>57	i
39	Cc1nc(N2CCN(Cc3ccc4c(c3)OCO4)CC2)c2oc3ccccc3c2n1	>57	i
40	Cc1cc(NC(=O)CCCN2C(=O)c3cccnc3C2=O)no1	>57	i
41	Cc1ccc2c(CC(=O)Nc3c(C)n(C)n(-c4ccccc4)c3=O)coc2c1	>57	i
42	CCOC(=O)c1nnn(-c2nonc2N)c1CNc1ccc(C)c(Br)c1	>57	i
43	CC(=O)c1ccc(OCC(O)CN2C(C)(C)CC(O)CC2(C)C)cc1 (stereo not drawn)	x	i
44	O=C(COc1ccc(Cl)cc1)NCc1nnc(SCC(=O)NC2CCCCC2)o1	>57	i
45	Cn1cccc1C(=O)N1CCC[C@@]2(CCN(c3ncccn3)C2)C1	x	i

(continued)
nr	structure	Bst PK mod	YjeE inh
46	Cc1cc(C)nc(N2CCCC(C(=O)NCc3cccc(C(F)(F)F)c3)C2)n1 (stereo not drawn)	>57	i
47	Cn1nc(C(=O)Nc2cccnc2)c2ccccc2c1=O	x	i
48	COc1ccc2[nH]c3c(c2c1)CCn1c-3nc2ccccc2c1=O	0.196*	i
49	COc1ccccc1C1SCCN1S(=O)(=O)c1cccc(C(F)(F)F)c1 (stereo not drawn)	x	i
50	CCC1Oc2ccc(C)cc2N(CC(=O)NCCCN2CCN(Cc3ccccc3)CC2)C1=O (stereo not drawn)	>57	i
51	O=C(Nc1c(C(=O)N2CCCCC2)cnn1-c1ccccc1)c1ccco1	x	i
52	Cc1cccc(Cn2c(NCC(C)O)nc3c2c(=O)n(C)c(=O)n3C)c1 (stereo not drawn)	>57	i
53	Cc1c(NC(=O)C(C#N)=C2CCCCC2)c(=O)n(-c2ccccc2)n1C	>57	i
54	COc1ccc(OC)c(S(=O)(=O)NC2CCN(Cc3ccccc3)CC2)c1	>57	i
55	O=C(CSc1nnc(-c2cccs2)n1-c1ccccc1)c1ccc2c(c1)OCCO2	>57	i
56	CCC1Oc2ccc(C)cc2N(CC(=O)NCCCN2CCCCC2CC)C1=O (stereo not drawn)	>57	i
57	COC(=O)c1c(C(=O)OC)c2n(c1C)Cc1ccccc1C2	x	i
58	CCN1CSC(=S)N(Cc2ccc(OC)cc2)C1	>57	i
59	Cc1nc(NC2=NCN(CCc3ccccc3)CN2)nc2ccccc12	>57	i
60	CCN(CC)CCn1c(NCc2cccc(OC)c2)nc2ccccc21	>57	i

Next part.
nr	structure	Bst PK mod	YjeE inh
61	CO[C@H]1/C=C/O[C@@]2(C)Oc3c(C)c(O)c4c(O)c(c5c(c4c3C2=O)NC2(CCN(CC(C)C)CC2)N=5)=NC(=O)/C(C)=C\C=C\[C@H](C)[C@H](O)[C@@H](C)[C@@H](O)[C@@H](C)[C@H](OC(C)=O)[C@@H]1C	x	i
62	O=C(CCNC(=O)c1ccc(Br)o1)NCc1ccc(Cl)cc1	>57	i
63	COc1cc2c(cc1OC)C(C(=O)NC1CC1)C1c3ccccc3CCN1C2=O (stereo not drawn)	x	i
64	Cc1noc(C)c1C(=O)N1CCC2(CC1)CCN(c1ccccn1)CC2	x	i
65	CC(C)COC(=O)c1cc(-c2ccc(/C=N/n3cnnc3)o2)ccc1Cl	>57	i
66	COc1ccc(CNC(=O)c2ccc(N3CCCC3=O)cc2)cc1	>57	i
67	COc1ccc(C(c2nnnn2C2CCCC2)N2CCc3ccccc3C2)cc1OC (stereo not drawn)	>57	i
68	Cc1ccc(NC(=O)c2ccccc2O)cc1	6.35*	i
69	O=c1[nH]c2ccccc2n1CCCN1CCN(C(c2ccccc2)c2ccccc2)CC1	>25.6	i
70	CCCNc1nc2c(c(=O)[nH]c(=O)n2C)n1CCC(C)C	>57	i
71	CCc1cc(N2CCOCC2)cc2c1[nH]c1ccccc12	x	i
72	O=C(CSc1nnc(-c2cccnc2)n1-c1ccccc1)NCc1ccc2c(c1)OCO2	>57	i
73	COc1cccc2cc(C(=O)N3CCN(C(=O)c4ccco4)CC3)c(=O)oc12	>57	i
74	CCOC(=O)c1c(NC(=O)CSc2nnc(-c3cccnc3)o2)sc(C(C)=O)c1C	>57	i
75	Cc1cc(NC(=O)CN2CCN(c3ccccc3O)CC2)no1	>57	i

Additional records follow.
nr	structure	Bst PK mod	YjeE inh
76	Cc1cc(N2CCN(C)CC2)nc2ccc(NC(=O)CCC(=O)NCCC3=CCCCC3)cc12	>57	i
77	c1ccc2[nH]c(SCc3cscn3)nc2c1	>57	i
78	Cc1ccc(N2C(N)=C(C#N)C(c3cccnc3)C3=C2CC(C)(C)CC3=O)cc1 (stereo not drawn)	>57	i
79	O=[N+]([O-])c1ccc(C2=Nn3c(nnc3-c3ccc(Cl)cc3)SC2)o1	x	i
80	CN(C)C(=O)c1ccc(-c2cncnc2NCc2cccnc2)cc1	x	i
81	CCC1CCCCN1CCCNC(=O)CNC(=O)Cn1ccc2ccccc2c1=O (stereo not drawn)	>57	i
82	O=C(c1ccco1)N1CCC2(CC1)CCN(c1ccccc1)CC2	x	i
83	CCC(C)(C(=O)NC1CCCCC1)N(Cc1ccco1)C(=O)CC1NC(=O)NC1=O (stereo not drawn)	>57	i
84	O=C(c1cc2cc3ccc(Cl)cc3nc2o1)N1CCN(Cc2ccc3c(c2)OCO3)CC1	>57	i
85	COc1ccccc1NC(=O)C1CCCN1C(=O)NCc1ccccc1 (stereo not drawn)	>57	i
86	CC(=O)c1ccc(Cc2cnc(N)s2)cc1	>57	i
87	O=C(O)C1CC=CCC1C(=O)Nc1ccccc1Cl (stereo not drawn)	>57	i
88	CCCCSc1nnc(-c2ccc(C)cc2)o1	i	i
89	CCOC(=O)N1CCC(N(C(=O)Nc2ccc(CC)cc2)C(C)CC)CC1 (stereo not drawn)	>57	i
90	CCCCn1cnc2c(c(CC#N)nn2-c2ccccc2)c1=N	x	i

The list continues.
nr	structure	Bst PK mod	YjeE inh
91	O=C(CCc1nc2ccccc2s1)N1CCN(S(=O)(=O)c2cccs2)CC1	>57	i
92	CCOC(NC(=O)c1ccccc1)C(NC(=O)c1ccccc1)OCC (stereo not drawn)	>57	i
93	COc1ccc2c(CC(=O)NCc3ccc4c(c3)OCO4)coc2c1	>57	i
94	Cc1cc(C(=O)COc2nncc3ccccc23)c(C)n1C	>57	i
95	CC(O)C(=O)O (stereo not drawn)	x	i
96	COc1cc(Cl)c(C)cc1NC(=O)CSc1nnc(-c2ccccn2)n1Cc1ccco1	>57	i
97	CCn1c(CNC(=O)c2cccc(C)c2)nc2ccccc21	x	i
98	O=C(Nc1nc(-c2cccs2)cs1)c1ccc(S(=O)(=O)N2CCCC2)cc1	>57	i
99	Cn1ncc(N=Cc2ccccc2O)c1C(=O)Nc1ccccc1	>25.6	x
100	Cc1ccc(-c2noc(CSc3nnnn3-c3ccccc3)n2)cc1	x	i
101	CC1CCCCC1NC(=O)CCCc1nc2ccccc2c(=O)[nH]1 (stereo not drawn)	>57	i
102	CCCN1Cc2cccc(C(=O)Nc3cc(OC)cc(OC)c3)c2C1=O	>57	i
103	CCCCNC(=O)CS(=O)Cc1nc(-c2cccc(Cl)c2)oc1C (stereo not drawn)	x	i
104	NC(=O)C1(N2CCCCC2)CCN(C(=O)c2ccc(-n3cnnn3)cc2)CC1	>57	i
105	O=C(NCc1cccs1)c1nc2c(nnn2Cc2ccc(F)cc2)c(=O)[nH]1	x	i

More results
nr	structure	Bst PK mod	YjeE inh
106	Cc1cc(=O)oc2cc(OCC(=O)OCC(=O)N3CCc4ccccc43)ccc12	>57	i
107	CCC1CCCCN1C(=O)COC(=O)c1ccc(S(=O)(=O)N2CCOCC2)cc1 (stereo not drawn)	>57	i
108	Cc1ccc(S(=O)(=O)Nc2ccc(S(=O)(=O)N3CCCC3)cc2)cc1	>57	i
109	CC(C)c1nc2oc3c(NCC4CCCO4)ncnc3c2c2c1CCC2 (stereo not drawn)	>57	i
110	O=C(Nc1cccnc1)c1cc2c(ccc3ccccc32)o1	x	i
111	CCc1nnc(NC(=O)CSc2nnc(CNc3cccc(C)c3)n2-c2ccccc2)s1	>57	i
112	COc1ccc2c(c1)cc1n2CCN2CCCN=C12	>57	i
113	COc1ccc(-c2noc(COc3ccc4c(c3)OCO4)n2)cc1	>57	i
114	CC(C)(C)c1cccc(/C=N/O)c1O	>25.6	x
115	O=S(=O)(NCCSc1nnnn1-c1ccccc1)c1cccs1	>57	i
116	CC1CN(C(=O)c2cc(F)c(F)cc2Cl)CC(C)O1 (stereo not drawn)	>57	i
117	COCCOC(=O)C(C#N)c1nc2ccccc2nc1N1CCN(Cc2ccccc2)CC1 (stereo not drawn)	>57	i
118	COc1ccc(CN(C(=O)CNC(=O)c2ccco2)C(C(=O)NC2CCCC2)c2ccco2)cc1 (stereo not drawn)	>57	i

Bst PK mod, entries above that show a hit
nr	structure	Bst PK mod	YjeE inh
48	COc1ccc2[nH]c3c(c2c1)CCn1c-3nc2ccccc2c1=O	0.196*	i
68	Cc1ccc(NC(=O)c2ccccc2O)cc1	6.35*	i

Screening data: PubChem BioAssay, National Center for Advancing Translational Sciences (NCATS)
